Source: PubChem (several laboratories)
FGF22 binding = binders of human FGF22 protein, primary screen, FGF22 synaptogenesis inhibitor project, biophysical, thermal shift, single point | Fibroblast growth factor 22 (Homo sapiens), Q9HCT0 | recombinant FGF22 thermal shift, SYPRO orange fluorescence; percent of sucrose octasulfate shift, DMSO zero | calls only at 9.99 µM | actives 1.5% (n = 340,000) | AID 651658, 2012;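 active = melting point raised past a set limit in the mean and every replicate; inconclusive = no clear call; three in four hits are not shown here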
Target sequence (Q9HCT0 whole entry, looked up): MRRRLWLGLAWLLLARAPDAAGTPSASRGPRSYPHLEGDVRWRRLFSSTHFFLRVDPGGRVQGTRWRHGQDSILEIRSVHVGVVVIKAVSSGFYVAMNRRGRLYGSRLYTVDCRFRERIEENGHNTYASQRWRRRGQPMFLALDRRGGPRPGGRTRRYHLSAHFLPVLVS
HNF4A DNA FP = change in binding of human HNF4A to DNA, primary screen, biochemical, fluorescence polarization, FITC-DNA; 1 h; actives 0.3% (n = 360,000); AID 1224865, 2016; activity change, % at 10 µM; in the data active = activity change above about 30%, passing the limit was not always enough;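 note: controls were the assay level and a saturating level of protein; the project sought stronger binding though the title names inhibitors; some compounds called inactive have numbers as strong as hits; positive values seem to mean higher polarization but the record does not say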
Target sequence (P41235 whole entry, looked up): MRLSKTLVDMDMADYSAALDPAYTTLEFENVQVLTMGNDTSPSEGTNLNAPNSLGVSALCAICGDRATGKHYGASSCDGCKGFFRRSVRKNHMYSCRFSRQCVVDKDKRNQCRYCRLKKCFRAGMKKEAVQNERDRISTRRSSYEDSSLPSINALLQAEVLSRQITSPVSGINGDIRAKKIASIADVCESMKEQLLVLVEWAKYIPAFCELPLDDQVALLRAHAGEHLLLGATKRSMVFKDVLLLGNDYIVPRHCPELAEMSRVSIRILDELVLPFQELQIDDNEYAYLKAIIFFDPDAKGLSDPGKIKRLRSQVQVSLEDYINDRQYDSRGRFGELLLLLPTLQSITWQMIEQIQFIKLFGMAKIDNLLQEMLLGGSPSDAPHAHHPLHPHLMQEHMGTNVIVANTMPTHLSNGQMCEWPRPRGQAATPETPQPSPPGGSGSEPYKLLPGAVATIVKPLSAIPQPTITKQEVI
Vif A3G = inhibitors of Vif binding to APOBEC3G peptide, primary screen, biochemical, TR-FRET, GST-Vif 1-94, biotin-A3G peptide, dose response retest (AID 1117319); TR-FRET GST-Vif / biotin-A3G peptide binding; higher % means a stronger effect; test concentration not given here; strong numbers were not always called active; inhibition, %; hits with a dose series show IC50 in µM; actives 0.57% (n = 260,000);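 active = above the screen mean plus three standard deviations and confirmed in dose response; inconclusive = results disagree or hit not tested in dose response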;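 note: Vif residues 1-94 fused to GST binding biotinylated APOBEC3G peptide 110-148; 0% = full assay without inhibitor and 100% = GST in place of GST-Vif; retest series ran down from 100 µM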
RanGTP-Imp inh = inhibitors of RanGTP-importin-beta interaction, primary screen, biochemical, FRET, CFP-Ran, YFP-importin-beta, homogeneous; Ran GTPase (GTP-bound) - importin-beta complex; cell-free CFP-Ran/YFP-importin-beta FRET ratio; inhibition, % (concentration not given with the values); actives 1.1% (n = 300,000); AID 2216, 2009;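 active = most replicates above 15%; inconclusive = exactly half above 15%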;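 note: 0% = DMSO wells and 100% = Ran loaded with GDP instead of GTP; wells of about 40 µL received 100 nL stock; the first replicate is given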
UCH37 inh = inhibitors of human UCH37 deubiquitinase, primary screen, biochemical, Ub-AMC cleavage, fluorescence | purified proteasome/UCH37 | Ubiquitin carboxyl-terminal hydrolase isozyme L5 (Homo sapiens), Q9Y5K5 | actives 0.33% (n = 330,000) | inhibition, % (no concentration beside the values);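 active = mean of two replicates above 20%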;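 note: 0% = compound-free wells with enzyme and 100% = wells lacking proteasome; stock transfer was 100 nL into about 20 µL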
Target sequence (Q9Y5K5 whole entry, looked up): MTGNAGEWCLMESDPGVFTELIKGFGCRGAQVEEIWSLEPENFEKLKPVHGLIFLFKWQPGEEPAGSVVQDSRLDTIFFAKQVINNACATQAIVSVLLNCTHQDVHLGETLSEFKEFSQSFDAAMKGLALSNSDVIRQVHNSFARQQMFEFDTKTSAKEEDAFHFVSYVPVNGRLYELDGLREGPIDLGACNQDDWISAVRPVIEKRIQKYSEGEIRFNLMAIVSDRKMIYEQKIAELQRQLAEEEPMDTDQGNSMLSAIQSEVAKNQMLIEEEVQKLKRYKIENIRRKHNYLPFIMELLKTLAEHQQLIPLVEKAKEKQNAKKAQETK
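assay system = human UCH37 enzyme supplied as purified proteasome complex | amount = proteasome at 0.15 nM in the dispensed enzyme solution | schedule = 30 min compound-proteasome preincubation then 25 min substrate reaction, room temperature | measured by = fluorescence, ex 355 nm, em 460 nm | benchmarks = no-proteasome wells (full inhibition) and compound-free wells (no inhibition)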
E coli growth = E. coli growth inhibition, primary screen, OD600; Escherichia coli growth, 23 h; hits give low values; OD600 absorbance (test concentration not listed); actives 0.21% (n = 330,000); AID 1053175, 2014;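 active = OD600 absorbance below the run mean of sample wells minus 3.6 SD, in any replicate, cut at about 0.56 in these data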;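 note: stock transfer was 300 nL into about 60 µL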
AF4-AF9 inh = inhibitors of AF4 peptide binding to AF9, primary screen, biochemical, AlphaScreen, biotin-AF4 peptide, FLAG-AF9, single point. Protein AF-9 (Homo sapiens), P42568. inhibition, % at 10 µM. actives 0.47% (n = 350,000). AID 651704, 2012;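 active = every replicate reaching a set inhibition limit, whatever the replicate mean, cut at about 25% in these data; inconclusive = mean inhibition reaches that limit but some replicates miss it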;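 note: 0% = plate neutral control median and 100% = total signal loss; the record names both 10 and 1 µM as test concentration; the first replicate is given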
Numbers without * were called inactive; i = inactive; ? = inconclusive; . = not tested or not shown; & = joins results of further samples. Not all compounds are listed. The share of hits here may be higher or lower than overall.

mol	AF4-AF9 inh	RanGTP-Imp inh	E coli growth	Vif A3G	FGF22 binding	HNF4A DNA FP	UCH37 inh
CCOc1cccc(C(=O)Nc2ccc(N3CCCC3)cc2)c1	-0.4	2.0	0.64	.	i	0.6	0.0
COC(=O)c1cccc(NC(=O)C23CC4CC(C2)CC(n2cncn2)(C4)C3)c1	.	0.8	0.68	-11%	.	0.0	6.3
Cc1nn(C2CC(O)C(O)C(CO)O2)c(=O)[nH]c1=O (centres undefined)	1.8	.	.	-5%	i	0.1	.
Cc1cccc(NC(=O)/C=C/c2ccc(Cl)cc2)n1	.	-3.4	0.67	-1%	.	-1.2	1.0
CC(C)(C)c1ccc(-c2nnc(SCC(=O)NC3CC3)o2)cc1	-0.2	.	0.7	.	i	-0.6	5.9
CCCN(C(=O)CSc1nc(C2CC2)n(-c2ccccc2)n1)C1CCS(=O)(=O)C1 (centres undefined)	-4.0	.	0.66	3%	i	1.9	1.9
Cc1ccc(N(CC(=O)NC2CC3CCC2C3)S(C)(=O)=O)cc1C (centres undefined)	.	-2.8	0.67	4%	.	-0.6	0.0
O=C(OCc1ccccc1)N1CCCCC1c1c(Cl)cccc1Br (centres undefined)	-2.8	.	.	.	i	-2.7	.
COc1ccc(C(=O)N2CCCc3ccccc32)cc1Br	-0.3	-5.3	0.63	.	i	-2.6	3.6
N#CCCn1cc(C(=O)CN2C(=O)NC3(CCCCCC3)C2=O)c2ccccc21	1.0	.	0.65	9%	i	1.3	1.6
Cc1cc(C)nc(N/N=C/C2=C(O)CC(c3ccccc3)CC2=O)n1 (centres undefined)	-4.0	2.5	0.69	5%	i	.	1.5
Cc1cccc2sc(N(CCCN3CCOCC3)C(=O)CS(=O)(=O)c3ccc(F)cc3)nc12	0.9	1.7	0.65	1%	i	4.2	4.8

By substructure, the entries above containing a Cl atom.
mol	AF4-AF9 inh	RanGTP-Imp inh	E coli growth	Vif A3G	FGF22 binding	HNF4A DNA FP	UCH37 inh
Cc1cccc(NC(=O)/C=C/c2ccc(Cl)cc2)n1	.	-3.4	0.67	-1%	.	-1.2	1.0
O=C(OCc1ccccc1)N1CCCCC1c1c(Cl)cccc1Br (centres undefined)	-2.8	.	.	.	i	-2.7	.

The listing continues.
mol	AF4-AF9 inh	RanGTP-Imp inh	E coli growth	Vif A3G	FGF22 binding	HNF4A DNA FP	UCH37 inh
COc1cc(/C=N/N2CCN(Cc3ccccc3)CC2)cc(OC)c1OC(C)=O	12	1.4	.	-4%	i	2.6	.
CC(C)C(=O)c1cn(CC(=O)NCc2ccco2)c2ccccc12	.	4.8	0.69	11%	.	3.6	4.4
CC(=O)c1ccc(NC(=O)CN2CCCC2)cc1	-0.5	-1.9	0.68	.	i	2.7	0.3
CCOC(=O)c1[nH]c2ccc(OC)cc2c1NC(=S)N1CCN(c2cccc(Cl)c2)CC1	.	-5.4	0.74	.	.	0.3	5.0
CC(Sc1ccc2ccccc2c1)C(=O)NC(N)=O (centres undefined)	-0.2	-0.9	0.72	.	.	0.2	3.2
Cn1ncc([N+](=O)[O-])c1C(=O)N/N=C/c1ccc(F)cc1	-3.4	-3.3	.	16%	i	-1.0	.
O=C(Nc1ncnc2c1ncn2C1OC(COC(=O)c2ccccc2)C(F)C1O)c1ccccc1 (centres undefined)	.	0.5	0.62	1%	.	0.9	3.1
O=C(NCC1CCCO1)/C(=C/c1ccccc1F)NC(=O)c1ccccc1 (centres undefined)	-8.3	3.8	0.7	.	i	-0.5	1.6
CCCCNC(=O)N1CCN(C(=O)c2ccco2)CC1	-2.9	0.4	0.65	-6%	i	-1.1	1.9
Cc1c(NS(=O)(=O)c2ccc3[nH]c(=O)[nH]c3c2)c(=O)n(-c2ccccc2)n1C	.	8.8	0.71	4%	.	-2.4	2.8
O=C(COc1ccc2c(-c3ccccc3)cc(=O)oc2c1)NCc1ccccn1	-4.0	1.5	0.79	.	i	1.3	3.7
CSc1ccccc1NC(=O)Cn1ccsc1=N	-2.9	1.9	0.68	9%	i	-3.4	0.0

One compound at a time (already shown). Order of screens: AF4-AF9 inh	RanGTP-Imp inh	E coli growth	Vif A3G	FGF22 binding	HNF4A DNA FP	UCH37 inh
CSc1ccccc1NC(=O)Cn1ccsc1=N in the list: -2.9	1.9	0.68	9%	i	-3.4	0.0
O=C(NCC1CCCO1)/C(=C/c1ccccc1F)NC(=O)c1ccccc1 (centres undefined) in the list: -8.3	3.8	0.7	.	i	-0.5	1.6

(more compounds)
mol	AF4-AF9 inh	RanGTP-Imp inh	E coli growth	Vif A3G	FGF22 binding	HNF4A DNA FP	UCH37 inh
S=C(NCc1ccccc1)N1CCCCC1	-0.1	2.9	0.73	-10%	i	5.3	2.8
N#CC1(NC(=O)CSc2nnc(-c3ccccc3F)n2N)CCCCC1	-1.4	-2.3	0.69	0%	i	4.2	-1.9
O=C(NCc1ccc(Cl)cc1)c1ccc(Cl)cc1[N+](=O)[O-]	.	8.5	0.71	10%	.	-1.7	0.1
COC(=O)C(C)(C(=O)OC)c1ccc([N+](=O)[O-])cn1	.	-0.4	0.66	-3%	.	0.5	1.1
CC(OC(=O)/C=C/c1ccccc1)C(=O)Nc1ccc(C(N)=O)cc1 (centres undefined)	-1.2	.	0.68	3%	i	2.3	1.8
N#C/C(=C\c1ccc(Cl)cc1)C(=O)Nc1cccnc1	-0.9	5.0	0.64	-13%	i	-11	2.8
O=C(Nc1nnc(SCc2ccccc2Cl)s1)C1COc2ccccc2O1 (centres undefined)	.	-3.4	0.76	6%	.	1.7	2.5
CCN(Cc1nc2ccccc2c(=O)[nH]1)C(=O)C1CC(=O)N(c2cccc3ccccc23)C1 (centres undefined)	2.8	.	0.7	4%	i	1.9	1.4
C=CCOc1ccc(Br)cc1CNCCCN1CCOCC1	6.1	4.8	0.68	-7%	i	2.5	3.0
CCCCNS(=O)(=O)c1ccc2nc(-c3cccnc3)cc(C(=O)NC3CC3)c2c1	1.4	-1.7	.	19%	i	5.4	.
Cc1ccc(-n2cccc2/C=N/n2cnnc2)cc1Cl	.	3.1	.	-1%	.	0.7	.
Cc1cc(C)cc(-n2c(SCC(=O)Nc3cccc(S(=O)(=O)NC4=NCCCCC4)c3)nc3ccccc3c2=O)c1	3.7	2.5	0.73	.	i	-1.2	0.0

Next part:
mol	AF4-AF9 inh	RanGTP-Imp inh	E coli growth	Vif A3G	FGF22 binding	HNF4A DNA FP	UCH37 inh
Cc1ccc(-n2c3c(cc(C(=O)NCCCN4CCOCC4)c2=O)C(=O)CC(C)(C)C3)cc1	-3.3	-3.3	0.65	-4%	i	2.8	-1.1
COc1cccc(C2(O)C(=O)Nc3ccccc32)c1 (centres undefined)	-6.7	4.8	0.69	4%	i	-4.7	4.8
O=C(CSc1nnc(-c2cccs2)n1C1CC1)NCC1CCCO1 (centres undefined)	-7.2	.	0.69	1%	i	0.2	3.9
Oc1ccccc1CNc1cccc2cccnc12	15	2.0	0.67	-5%	i	3.2	-1.2
N#Cc1ccc(C(=O)OCC(=O)Nc2cccnc2Cl)cc1	-4.1	.	0.69	8%	i	0.3	3.6
COc1ccc(NC(=O)N(C)C[C@H]2Oc3c(NC(=O)Nc4ccc(C(F)(F)F)cc4)cccc3C(=O)N([C@H](C)CO)C[C@@H]2C)cc1	0.8	.	.	.	i	3.4	0.1
O=C(OCN1C(=O)c2ccccc2C1=O)c1cccc(S(=O)(=O)N2CCOCC2)c1	0.5	?	0.74	.	i	-2.3	0.4
O=C1NC[C@H](c2ccccc2)N(CCCCC2CCCCC2)C1=O	-12	.	.	.	i	2.0	.
CC1CC(C)CN(C(=O)CSCC(=O)O)C1 (centres undefined)	-5.2	1.6	0.7	76%	i	-3.6	0.8
CCN(CC)CCCNC(=S)Nc1ccc(Br)cc1	2.1	1.9	0.68	-1%	i	-0.5	1.3
Cc1n[nH]c(=O)c2c1nnn2Cc1ccc(F)cc1	-0.7	-0.7	0.69	-10%	i	-1.9	1.5
COc1ccc([C@H]2CC(=O)C=C(c3ccc(C)c([N+](=O)[O-])c3)C2)cc1	2.5	.	0.8	.	i	-1.7	0.6

(list continues)
mol	AF4-AF9 inh	RanGTP-Imp inh	E coli growth	Vif A3G	FGF22 binding	HNF4A DNA FP	UCH37 inh
O=C(NCc1ccco1)C(c1ccccc1F)N(CC1CCCO1)C(=O)Cn1nnc2ccccc21 (centres undefined)	.	2.5	0.75	21%&1%	.	-0.8	4.0
COc1cccc(-c2nc(NCc3ccco3)c3ccccc3n2)c1O	.	2.4	0.73	.	.	-3.3	0.4
O=C(CCOc1ccccc1)Nc1ccc(Br)cc1	-1.8	-4.2	0.66	.	i	2.2	0.7
COc1cc(S(=O)(=O)NCC2CCCO2)c(OC)cc1Cl (centres undefined)	.	2.3	0.73	0%	.	-2.0	3.5
O=c1[nH]c(=S)[nH]cc1Oc1ccccc1	?	.	0.66	-12%	i	-3.0	2.6
COC(=O)Nc1ccc(S(=O)(=O)N(C)C)cc1	.	3.2	0.71	-4%	.	4.8	4.8
O=C(NCCCO)C12CC3CC(CC(C3)C1)C2	.	-0.7	0.62	.	.	1.3	0.8
Cn1c(=O)c2cnc(-c3ccc(C(F)(F)F)cc3)nc2n(C)c1=O	0.9	?	0.65	-2%	i	5.6	-0.2
Cc1ccccc1-n1nc2c(c1NC(=O)C(C)C)CS(=O)(=O)C2	1.4	0.0	0.67	1%	i	2.3	4.3
CCc1nc2nc(C)cc(Nc3cccc(C(F)(F)F)c3)n2n1	.	-3.0	0.76	-6%	.	-3.4	4.8
CC(C)COc1ccc(C/C(N)=N/n2cnnc2)cc1	-3.3	-1.7	0.66	1%	i	1.0	-2.2
CCOC(=O)c1c(C(F)(F)F)cc(-c2ccc(F)cc2)nc1C	.	-3.8	0.7	.	.	-0.5	0.8

Remaining list, next part
mol	AF4-AF9 inh	RanGTP-Imp inh	E coli growth	Vif A3G	FGF22 binding	HNF4A DNA FP	UCH37 inh
O=C1c2ccccc2C(=O)C1C1=Nc2ccccc2NC(c2ccccc2)C1 (centres undefined)	-1.9	2.0	0.72	1%	i	.	5.1
O=C(Cc1ccccc1Cl)Nc1ccc(S(=O)(=O)N2CCOCC2)cc1	2.4	?	0.7	0%	i	-0.1	3.1
Cc1c(Br)c(C(=O)N2CCc3ccccc32)nn1C	.	6.1	0.7	15%	.	1.0	-0.3
COCCNC(=O)C1(C)CCN(C(=O)c2oc3ccccc3c2C)C1 (centres undefined)	1.0	.	.	.	i	-1.0	.
CCCCCn1c2c(c(=N)c3ccccc31)CCC2	-4.5	-1.6	0.67	.	i	4.7	-4.7
Cc1ccc(NCSc2ccc(Cl)cc2)cc1	-0.1	.	0.7	14%	i	-3.7	4.8
O=C(Nc1ccc2c(c1)nc1n2CCOC1)c1ccccc1	.	0.6	0.69	-1%	.	-2.2	2.0
O=C(CNC(=O)c1ccccc1F)N/N=C/c1cn[nH]c1-c1ccccc1	0.2	2.4	.	-10%	i	-0.2	.
COc1ccc(N/N=C2/CCCCC2=O)cc1	.	0.5	.	28%	.	0.9	.
O=C(CC1SCCNC1=O)Nc1ccc(Cl)c(Cl)c1 (centres undefined)	8.4	5.2	0.71	0%	i	2.4	1.5
Cc1ccc(S(=O)(=O)N2CCC(C(=O)N/N=C/c3ccncc3)CC2)cc1	0.6	-0.5	.	16%	i	0.6	.
CC(C)CNC(=O)c1ccc(Cl)c(N)c1	.	5.7	0.62	28%	.	.	-0.1
COc1ccc(N2CCN(S(=O)(=O)c3cnc[nH]3)CC2)cc1	-1.8	-0.7	0.69	.	i	-2.9	4.6
